# HSV augment – HSV replication enhancement; HSV replication augmentation in cells, fold increase; maximum fold increase; 220,000 compounds, 0.005% hits; AID 1956;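 active means peak rise of 1.5-fold or more in the series; inconclusive means self-fluorescent or not available for retest; tested in PC3 cells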;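 further: first round at 10 µM; read as green reporter fluorescence; hits show the peak of a series up to 25 µM; 1 = signal of infected wells without compound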
# INS promoter inh – TRM-6 insulin promoter activity inhibition; TRM-6 cells (human fetal islet line), insulin promoter-eGFP reporter, imaging; reporter expression induced with tamoxifen; inhibition, % at 2 µM; 130,000 compounds, 0.9% hits; AID 1273;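 active means inhibition above the mean plus 3 SD, with well images judged a real hit on visual review, cut at about 60% in these data, passing the limit was not always enough; inconclusive means inhibition over the cutoff but images rejected on review; inactive means inhibition not above the cutoff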
# RGS16-Gao – regulators of human RGS16-Galphao interaction; O15492+P09471; bead-based flow cytometry RGS16-Galphao binding, fluorescence; actives lie on both sides; binding response (% of control), % at 10 µM; 220,000 compounds, 0.38% hits; AID 1441;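 active means below 25% or above 175%, edge rows of some plates excepted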;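 further: Galphao activated by GDP with aluminum fluoride before binding; 100% = wells without compound and 0% = beads without RGS; some results beyond the cut were filed as inactive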
# Target sequence (O15492 whole entry, looked up): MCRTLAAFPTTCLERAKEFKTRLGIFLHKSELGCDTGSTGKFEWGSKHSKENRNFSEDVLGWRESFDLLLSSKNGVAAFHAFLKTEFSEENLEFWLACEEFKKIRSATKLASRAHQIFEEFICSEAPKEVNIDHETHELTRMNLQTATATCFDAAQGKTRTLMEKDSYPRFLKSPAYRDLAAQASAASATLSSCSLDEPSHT
# Target sequence (P09471 whole entry, looked up): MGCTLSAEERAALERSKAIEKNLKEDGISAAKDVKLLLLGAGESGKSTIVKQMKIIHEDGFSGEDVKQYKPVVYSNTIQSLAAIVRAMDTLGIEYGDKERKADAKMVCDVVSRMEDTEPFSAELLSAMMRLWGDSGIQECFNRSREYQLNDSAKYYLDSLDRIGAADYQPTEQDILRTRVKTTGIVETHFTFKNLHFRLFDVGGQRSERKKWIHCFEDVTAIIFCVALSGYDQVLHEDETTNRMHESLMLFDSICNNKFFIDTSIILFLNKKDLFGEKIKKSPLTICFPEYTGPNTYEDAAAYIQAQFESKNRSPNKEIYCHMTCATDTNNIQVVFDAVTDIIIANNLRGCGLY
# PKD1 kinase inh – PKD1 (human) kinase inhibition | Q15139 | PKD1 kinase fluorescence polarization assay | 200,000 compounds, 0.056% hits | inhibition, %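 (about 10 µM by stock and volumes)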;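 active means inhibition of 50% or more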;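 further: controls were vehicle for no effect and a reference inhibitor for full effect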
# GALR2 ag – agonists of human galanin receptor 2 (GALR2); O43603; GALR2-expressing cells, agonist activation read-out; activation, %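 (tested at 5 µM)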; 140,000 compounds, 0.48% hits;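 active means above mean plus 3 SD of all compounds, about 5% in these data, not always enough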;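 further: 0% = vehicle buffer wells and 100% = reference agonist at full effect; tested in CHO reporter cells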
# Target sequence (O43603 whole entry, looked up): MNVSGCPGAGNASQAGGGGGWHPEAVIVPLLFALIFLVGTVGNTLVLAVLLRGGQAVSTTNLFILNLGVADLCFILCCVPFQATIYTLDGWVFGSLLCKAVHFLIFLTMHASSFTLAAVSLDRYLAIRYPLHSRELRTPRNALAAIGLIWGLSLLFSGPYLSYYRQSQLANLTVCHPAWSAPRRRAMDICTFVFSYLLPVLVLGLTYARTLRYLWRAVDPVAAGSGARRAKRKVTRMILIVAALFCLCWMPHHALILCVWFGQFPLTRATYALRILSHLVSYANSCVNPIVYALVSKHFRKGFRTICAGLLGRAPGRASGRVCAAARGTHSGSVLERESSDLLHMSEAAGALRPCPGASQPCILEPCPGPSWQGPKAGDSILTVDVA
# INS promoter inh cell count – also measured in INS promoter inh; calls as there; normalized cell count, %; measured here: cell count, toxicity; reference of the scale not given here;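 cells exposed to compound for 48 h; stained nuclei by imaging scaled within each plate; lower means fewer cells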
# HSV augment primary fold – second read-out of HSV augment, no call of its own (marks repeat the call); fold increase; compound at 10 µM; measured here: primary screen fold increase 10 uM; tested in PC3 cells;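 GFP signal in the first replicate; 1 = infected wells without compound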
# Starred values were filed as active, the others as inactive; i = inactive; ? = inconclusive; · = not tested or not shown.
SMILES,HSV augment,HSV augment primary fold,INS promoter inh,INS promoter inh cell count,RGS16-Gao,PKD1 kinase inh,GALR2 ag
COC(=O)c1ccc2nc(-c3ccc(S(C)(=O)=O)cc3)cn2c1,i,1,-233,27,55,-10,·
[2H]c1c([2H])c([2H])c(C(=O)c2sc(N3CCCCCC3)nc2-c2ccccc2)c([2H])c1[2H],·,·,·,·,103,-2,-0.1
O=C(NC1CC1)c1ccc(-c2nc3ccccc3s2)s1,i,0.86,-25,136,101,-8,-0.9
COc1cc2c(cc1Cl)/C(=C\CCN(C)C)c1ccccc1S2,i,0.69,-13,60,111,-2,-0.8
COC(=O)CCC(=O)Nc1ccc(OC)cc1,i,0.81,12,58,110,-6,-3.5
COc1ccc(/C=N/Nc2ncc(C(F)(F)F)cc2Cl)c(OC)c1OC,i,0.87,7,101,105,3,-0.9
Cc1ccc(SCc2nc(N)nc(Nc3ccccc3C)n2)c(C)c1,i,0.91,32,187,100,-6,-1.0
CC(=O)Oc1ccccc1C1OCCN1C(C)=O (stereo not given),i,1,56,170,102,3,-1.8
CCCNC(=O)CSc1nnc(C)s1,i,0.8,25,164,98,-1,-1.9
CC(=O)c1cccc(-n2c(CCC(=O)O)ccc2-c2cccs2)c1,i,0.82,-59,115,100,-3,-1.8
CCOC(=O)C(C(=O)Nc1ccccc1)C1CCCCC1 (stereo not given),i,1,10,130,122,-12,-2.0
COC(=O)C1=C(N)Oc2c(oc(CO)cc2=O)C1c1ccc(F)cc1 (stereo not given),i,1.1,·,·,102,·,·
COc1cc(/C=C(/Sc2nnc(-c3ccc(F)cc3)o2)C(=O)O)ccc1OC(F)F,i,0.81,7,84,98,-7,·
CC(C)CCNC(=O)C(Cc1ccccc1)NS(=O)(=O)c1ccc2c(c1)c(=O)n(C)c(=O)n2C (stereo not given),i,0.9,·,·,101,0,-0.6
Cc1ccccc1NC(=O)c1cccc2nccnc12,i,1.1,·,·,102,17,-1.0
Cc1ccc(-c2nnn(CC(=O)N(CCN3CCOCC3)C(C(=O)NC(C)(C)C)c3ccc(C)o3)n2)cc1 (stereo not given),i,0.95,·,·,84,·,·
COc1ccccc1NC(=O)NC1(C(=O)N2CCC(O)CC2)CCCCC1,i,0.73,-18,181,104,0,-0.5
COC(=O)c1cccc(S(=O)(=O)N2CCCCC2)c1,i,0.82,33,195,105,5,-1.4
O=C(CCCn1c(=S)[nH]c2cc3c(cc2c1=O)OCO3)N1CCN(c2ccccn2)CC1,i,0.88,15,122,96,4,-2.0
COc1cccc(OC)c1C(=O)Nc1nnc(C(C)C)s1,i,0.93,-41,88,61,-12,-2.2
CCOc1ccc(C(c2c(NC(=O)c3ccccc3)sc(C)c2C)N2CCN(C)CC2)cc1 (stereo not given),i,0.96,·,·,105,0,2.1
Cc1cc(O)c(NC(=S)NC(=O)c2ccc(-c3ccc(Cl)cc3)o2)cc1C,i,0.86,22,67,98,-7,-1.7
Cc1cccc(C)c1NC(=S)N1CCC(N(C)CC2CCCO2)CC1 (stereo not given),i,1,42,107,137,-7,0.3
O=C1c2ccccc2NC(c2cccnc2)N1c1ccccc1F (stereo not given),i,1,0,150,105,-5,-2.3
Cc1cc(=O)[nH]c2c1c(C)nn2C(C)(C)C,i,0.98,·,·,107,·,·

# A draw from above in order of length of the SMILES, descending:
SMILES,HSV augment,HSV augment primary fold,INS promoter inh,INS promoter inh cell count,RGS16-Gao,PKD1 kinase inh,GALR2 ag
[2H]c1c([2H])c([2H])c(C(=O)c2sc(N3CCCCCC3)nc2-c2ccccc2)c([2H])c1[2H],·,·,·,·,103,-2,-0.1
Cc1ccc(-c2nnn(CC(=O)N(CCN3CCOCC3)C(C(=O)NC(C)(C)C)c3ccc(C)o3)n2)cc1 (stereo not given),i,0.95,·,·,84,·,·
CCOc1ccc(C(c2c(NC(=O)c3ccccc3)sc(C)c2C)N2CCN(C)CC2)cc1 (stereo not given),i,0.96,·,·,105,0,2.1
COC(=O)C1=C(N)Oc2c(oc(CO)cc2=O)C1c1ccc(F)cc1 (stereo not given),i,1.1,·,·,102,·,·
COC(=O)c1ccc2nc(-c3ccc(S(C)(=O)=O)cc3)cn2c1,i,1,-233,27,55,-10,·
CC(=O)c1cccc(-n2c(CCC(=O)O)ccc2-c2cccs2)c1,i,0.82,-59,115,100,-3,-1.8
Cc1ccc(SCc2nc(N)nc(Nc3ccccc3C)n2)c(C)c1,i,0.91,32,187,100,-6,-1.0
O=C1c2ccccc2NC(c2cccnc2)N1c1ccccc1F (stereo not given),i,1,0,150,105,-5,-2.3
COC(=O)c1cccc(S(=O)(=O)N2CCCCC2)c1,i,0.82,33,195,105,5,-1.4
CCOC(=O)C(C(=O)Nc1ccccc1)C1CCCCC1 (stereo not given),i,1,10,130,122,-12,-2.0
Cc1cc(=O)[nH]c2c1c(C)nn2C(C)(C)C,i,0.98,·,·,107,·,·
CCCNC(=O)CSc1nnc(C)s1,i,0.8,25,164,98,-1,-1.9

# (listing goes on)
SMILES,HSV augment,HSV augment primary fold,INS promoter inh,INS promoter inh cell count,RGS16-Gao,PKD1 kinase inh,GALR2 ag
COc1ccc(CNC(=O)c2cnc3cc(C)ccn3c2=O)cc1,i,0.96,·,·,109,4,-1.7
COc1ccc2cc(C(c3nnnn3CCc3ccccc3)N3CCCC(C)C3)c(=O)[nH]c2c1 (stereo not given),i,1.1,·,·,96,-5,1.2
CCCCOc1ccc(CSC(=N)N)cc1Cl,i,0.78,·,·,100,·,·
Cc1onc(-c2ccccc2Cl)c1C(=O)NC(=S)Nc1ccccc1F,i,0.96,·,·,101,-3,·
Cc1ccc2nc(-c3ccc(N4C(=NC(=O)CCC(=O)O)SC5CS(=O)(=O)CC54)cc3)sc2c1 (stereo not given),i,1,·,·,106,-11,0.1
CC1(C)CC(=O)C2=C(C1)OC(N)=C(C#N)[C@@H]2c1ccccc1[N+](=O)[O-],i,1.2,·,·,98,·,·
O=C1c2ccccc2C(=O)N1OCc1ccccc1[N+](=O)[O-],i,0.96,·,·,101,-8,·
O=C(Cc1cccs1)Nc1cccc(-c2nc3ccccc3o2)c1,i,1.2,-37,148,102,-10,-1.6
Cn1c(/C(C#N)=C(\O)c2ccc([N+](=O)[O-])cc2)nc2ccccc21,i,0.89,-27,58,114,-1,·
O=C(O)CCC(=O)Nc1nc2nccc(-c3ccccc3)n2n1,i,0.92,·,·,102,·,·
COC(=O)C1=C(C)N(CC2CC2)C(=O)N[C@H]1c1ccc(Br)cc1,i,0.92,-10,108,103,-9,-1.7
O=C(NNc1ncnc2c1cnn2-c1ccc(F)cc1)c1cccs1,i,0.96,41,119,102,-1,·
O=C(CCN1C(=O)/C(=C/c2cccs2)SC1=S)NC1=NCCS1,i,1.1,·,·,123,-8,-1.7
O=C(/C=C/c1ccc(Cl)cc1Cl)N(Cc1ccc(Cl)cc1)C1CCS(=O)(=O)C1 (stereo not given),i,0.92,-34,96,47,0,-1.1
Cc1[nH]n(-c2ccccc2)c(=O)c1N=Nc1cccc(S(=O)(=O)N2CCOCC2)c1,i,1.3,·,·,106,8,-0.8
Cc1ccc(S(=O)(=O)NCC(=O)N(CC(=O)NCC2CCCO2)Cc2ccccc2)cc1 (stereo not given),i,0.96,·,·,129,-2,-0.9
CCc1ccc(C(=O)Nc2ccc(OC)c(S(=O)(=O)N3CCOCC3)c2)cc1,i,0.97,·,·,100,-5,·
O=C1SCC(c2ccc(Cl)cc2Cl)=NN1Cc1nnc(-c2ccccc2)o1,i,1,4,105,129,6,-1.5
N#Cc1c[nH]n2c(=O)c3c(nc12)CCCC3,·,·,-17,123,86,0,-3.3
CC(=O)c1cccc(OCC(=O)N(C)CC(=O)Nc2ccc(F)cc2)c1,i,1,·,·,104,·,·
Cc1cc(NC(=O)CSc2nccn2-c2ccc(Cl)cc2)no1,i,0.93,0,78,105,9,-3.8
Cc1ccccc1C(O)c1cccnc1 (stereo not given),i,0.95,-8,127,106,-10,-0.6
C/[N+]([O-])=C/c1c(OCc2ccc(Cl)cc2Cl)ccc2ccccc12,i,0.94,19,120,105,-6,·
CCOC(=O)c1sc(NC(=O)CCSC)nc1C,i,0.89,·,·,99,0,-0.5
CN(C#N)c1nc(N2CCOCC2)nc(N2CCOCC2)n1,i,1,12,165,·,-4,-2.0
SMILES,HSV augment,HSV augment primary fold,INS promoter inh,INS promoter inh cell count,RGS16-Gao,PKD1 kinase inh,GALR2 ag
FC(F)(F)c1ccc(CN2C[C@@H]3C(c4ccc(C(F)(F)F)cc4)C4(c5cccnc5)CC3(C4)[C@H]2c2ccccc2)cc1 (stereo not given in full),i,0.97,·,·,102,·,·
Cc1ccc(C(=O)O)cc1N1C(=O)CCCC1=O,i,1.1,·,·,72,3,·
Cc1cccc(C)c1OCC(=O)Nn1c(COc2ccccc2)nc2ccccc2c1=O,i,0.99,-3,125,120,-6,-0.8
CCOc1cccc(/C=C2/NC(=O)N(CC(=O)Nc3cccc(C)c3)C2=O)c1O,?,·,·,·,100,-4,·
CCCC(C)n1[nH]c(=O)cc1N (stereo not given),i,1.1,6,54,97,-1,0.0
CCOc1ccccc1N1CCN(Cc2c(C)n(C)n(-c3ccccc3)c2=O)CC1,i,0.87,·,·,98,1,·
N#Cc1c2c(c(-c3ccccc3)[nH]c1=O)CCCC2,i,0.69,-33,72,97,9,-0.6
CCOC(=O)c1ccc2c(c1)nc(-c1ccc(F)cc1)c1nccn12,i,1.1,10,75,103,7,-0.9
Cc1onc(-c2ccccc2)c1C(=O)Nc1ccc2c(c1)OCCO2,i,0.99,9,115,92,-10,-0.8
CCn1c(SCC(=O)Nc2ccccc2OC)nc(O)cc1=O,i,1.1,·,·,98,·,·
FC(F)Oc1ccc(/C=N/NC(=S)Nc2cc(C(F)(F)F)ccc2Cl)cc1,i,1,0,127,105,25,1.3
CN(NC(=O)COc1ccccc1)C1=NS(=O)(=O)c2ccccc21,i,0.99,·,·,99,3,·
O=C(O)CN(Cc1ccccc1)S(=O)(=O)c1ccc2c(c1)OCCO2,i,1,·,·,113,-3,·
O=C(O)/C=C/c1cn(Cc2ccccc2)nc1-c1ccc(Cl)cc1,i,1.1,22,41,102,-5,·
O=C(CSc1nnc(-c2ccncc2)o1)NCc1ccccc1,i,0.91,-19,87,89,-8,-1.1
COc1cccc2c1C(=O)c1c(O)c3c(c(O)c1C2=O)C[C@@](O)(C(=O)CO)C[C@@H]3O[C@H]1C[C@H](N)[C@H](O)[C@H](C)O1,·,·,-355,13,86,75*,-1.6
CCn1c(COc2cccc3cccnc23)nnc1SCC(=O)OC,i,1.1,·,·,104,0,·
Cc1cccc(-n2nc(C(=O)Nc3ccccc3)n3c(=O)cc(-c4ccccc4)nc23)c1,i,1.1,-4,120,98,-10,-2.8
O=C(NC1CC2CCCC(C1)N2S(=O)(=O)c1ccccc1)c1ccccc1 (stereo not given),i,0.98,·,·,105,5,0.6
CCn1c(SCC(=O)c2ccc(Cl)s2)nnc1-c1cccs1,i,0.84,3,127,84,0,0.2
COc1ccc(CN(C(=O)c2ccccc2OC)C2CCS(=O)(=O)C2)cc1 (stereo not given),i,0.86,-43,85,107,-3,-1.8
O=C(Nc1cccn(Cc2c(Cl)cccc2Cl)c1=O)c1c(Cl)cccc1Cl,i,0.77,12,115,105,-6,-1.8
O=C1NC(=O)C2(COC3(CCCC3)OC2)S1,i,1,·,·,101,-1,-0.9
COc1cc(OC)cc(C(=O)N/N=C/c2ccc(OC)c(COc3ccc4ccccc4c3)c2)c1,·,·,·,·,95,2,-2.6
COc1ccc(Nc2nc(-c3cccc([N+](=O)[O-])c3)nc3ccccc23)c(OC)c1,i,0.95,·,·,97,-2,-0.6
O=C(CSc1n[nH]c(=O)[nH]c1=O)N/N=C/c1ccccc1,i,1.2,25,56,131,4,0.5
Cn1c(=O)c2c(ncn2CC(=O)N/N=C/C=C\c2ccccc2[N+](=O)[O-])n(C)c1=O,i,0.97,·,·,94,·,·
CCCC(=O)Nc1ccc(N2CCCCC2)cc1,i,0.94,-32,97,76,-14,-1.4
Cc1c(Cc2ccccc2)sc(NC(=O)C(C)(C)C)c1C(N)=O,i,0.94,21,113,103,2,·
O=c1oc2ccccc2cc1C1=Nn2c(nnc2-c2cccnc2)SC1,i,1,·,·,87,6,-1.0

# Source: PubChem (several laboratories)
